VCAM-1 up – boosters of cytokine-driven VCAM-1 levels – cell-based, plate reader, pooled HUVEC, TNFa stimulus (AID 455). HUVEC TNFa-induced VCAM-1 immunofluorescence, plate reader; numbers were filed only for top-ranked candidate wells. augmentation, % at 5 µM. 10,000 tested, 0.2% active;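 active = a compound raising TNF-alpha-driven VCAM-1 surface staining, with its hit status upheld on visual or statistical review; inactive = the rest, including hits rejected on review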;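 note: 0% = TNFa with vehicle and 100% = strongest image-checked hit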
Proteasome disasm – blocks ATP-dependent breakdown of the yeast 26S proteasome. anti-FLAG beads, GFP-proteasome disassembly, flow cytometry. inhibition of disassembly, % (concentration not given with the values). 24,000 tested, 0.2% active;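 active = above 40%; inconclusive = likely self-fluorescent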;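 note: plate controls were ATP control with full disassembly for no effect and ATP-gamma-S intact proteasomes for full effect; higher percent means more bead fluorescence retained so stronger block of disassembly; stock transfer was 100 nL into about 10 µL; wells with too few beads may also be inconclusive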
Numbers without * were called inactive; i = inactive; ? = inconclusive; . = not tested or not shown.

Sequence of screens – VCAM-1 up, Proteasome disasm
> CCOC(=O)c1sc(NC(=O)CSc2nnc(-c3ccco3)n2CC)c(C(=O)OCC)c1C
 : i, 1.1
> Cc1ccc(-c2cc(C(F)F)nc(NCC3CCCO3)n2)cc1 (stereo unspecified)
 : i, 3.8
> COc1ccc(NC(=O)CN2CCN(CC(=O)Nc3ccccc3Cl)CC2)cc1Cl
 : ., -1.5
> c1ccc(-c2cnc(CSc3ncnc4sccc34)o2)cc1
 : i, 2.3
> Cc1noc(C)c1S(=O)(=O)NC1CCCc2ccccc21 (stereo unspecified)
 : ., ?
> CCOC(=O)/C(C#N)=C(/C)c1ccc(OC)cc1
 : i, 0.2
> O=C(c1cc2n(n1)C(C(F)(F)F)CC(c1ccc(Cl)cc1)N2)N1CCCC1 (stereo unspecified)
 : i, 2.7
> O=C(NCCC1=CCCCC1)C1CCN(S(=O)(=O)c2cccc3nsnc23)CC1
 : i, 0.4
> COc1ccc(C(CNC(=O)CN2C(=O)NC3(CC(C)CC(C)(C)C3)C2=O)N2CCOCC2)cc1 (stereo unspecified)
 : i, 0.7
> Cc1ccc2c(c1)N(CC(=O)Nc1ccc3c(c1)OCCO3)C(=O)CO2
 : i, -1.1
> O=C(CSC1=NCCS1)NCc1ccco1
 : i, 0.1
> CCC(Sc1nc2n[nH]c(C)c2c(=N)n1-c1cc(Cl)ccc1C)C(=O)N1CCOCC1 (stereo unspecified)
 : i, -0.4
> CCOC(=O)N1CCC(NC(=O)C2CCN(S(=O)(=O)N3CCC(C)CC3)CC2)CC1
 : ., -1.7
> CC(C)C(NS(=O)(=O)c1ccc2c(c1)oc(=O)n2C)C(=O)N1CCN(c2ccccc2F)CC1 (stereo unspecified)
 : ., -0.4
> O=C(CSc1n[nH]c(-c2cccs2)n1)N1CCN(S(=O)(=O)c2ccccc2)CC1
 : i, 2.8
> CCOCCCNC(=O)C1CCN(S(=O)(=O)N2CC(C)CC(C)C2)CC1 (stereo unspecified)
 : ., -0.1
> O=C(CN1CCCN(S(=O)(=O)c2ccc(F)cc2)CC1)Nc1ccccc1Br
 : i, 0.3
> Fc1ccc(N2CCN(c3nc(-c4ccco4)cc(C(F)(F)F)n3)CC2)cc1
 : ., -0.7
> O=C(CSc1nnc(-c2ccccc2Br)o1)Nc1cccc2ccccc12
 : i, -0.4
> N#Cc1ccc(NC(=O)c2cc3cc4c5c(c3oc2=N)CCCN5CCC4)cc1
 : ., ?
> CN(C)C(=O)CSc1nnc(-c2cccnc2)n1-c1ccccc1
 : ., -0.5
> CCc1c(C)c2ccc(OCC(=O)OC)cc2oc1=O
 : i, -0.1
> CC(CCc1ccco1)NC(=O)Cn1ncc2c(=O)oc3ccccc3c21 (stereo unspecified)
 : ., -1.2
> CC(C)=C1C2CC2C2C(C(=O)O)C12 (stereo unspecified)
 : ., 0.3
> CCCN1C(=O)c2cc(C(=O)NCc3cccs3)ccc2C1O (stereo unspecified)
 : ., -3.2
> COc1cc(NC(=O)CSCc2cnn(-c3ccccc3)c2-n2cccc2)cc(OC)c1
 : i, 10.7
> Cc1cn(CC2COC(C)(C)O2)c(=O)[nH]c1=O (stereo unspecified)
 : ., -0.7
> Cc1ccc(S(=O)(=O)N2CCC(C(=O)NCCN3CCCCCC3)CC2)cc1
 : i, 2.5
> Cc1cc(NC(=O)CCCC(=O)Nc2ccc(F)cc2)no1
 : i, 0.8
> O=C1NC(c2ccccn2)Nc2sc3c(c21)CCC3 (stereo unspecified)
 : ., 1.9

More entries:
Sequence of screens – VCAM-1 up, Proteasome disasm
> CCOc1ccccc1CNS(=O)(=O)c1ccc2c(c1)oc(=O)n2C
 : ., 0.8
> NC(=O)CN1CCN(C(=O)NC2CCCCC2)CC1
 : ., 1.2
> COC(=O)c1cc(-c2ccccc2)n(CC(=O)O)c1C
 : ., 1.1
> Cc1cccc(-n2ccnc2SCC(=O)Nc2cc(C)on2)c1
 : i, 0.0
> COc1ccc(NC(=O)CNS(=O)(=O)c2cccs2)cc1
 : ., -2.5
> COc1ccc(-n2c(C)nc3cc(C(=O)NCc4ccco4)ccc32)cc1
 : ., 7.0
> CCCCC(=O)Nc1c(O)c2ccccc2[nH]c1=O
 : i, 1.4
> CCOC(=O)c1[nH]c2ccccc2c1NC(=O)c1ccco1
 : i, -0.3
> COc1ccc2nc(NC(=O)CSc3nnc(-c4ccoc4C)n3C)sc2c1
 : i, 0.9
> Cc1ccc(S(=O)(=O)Nc2ccc3ncccc3c2)cc1
 : ., 0.6
> O=[n+]1cc(-c2ccc(F)cc2)n([O-])c2c1CCC2
 : i, 0.7
> CC(=O)c1ccc(NC(=O)c2ccn[nH]2)cc1
 : ., -3.2
> C=CCn1cc(C(=O)NCC2CCCO2)c(=O)c2cc(S(=O)(=O)N3CCCCCC3)ccc21 (stereo unspecified)
 : ., -1.3
> O=C(Nc1ccccc1C(=O)O)c1cccc(NC(=O)c2ccc(Br)o2)c1
 : i, 0.3
> CCN1CCN(c2c(Cl)cccc2NC(=O)c2ccco2)CC1
 : i, -0.3
> CCOC(=O)c1ccccc1NC(=O)c1cccc2c1C(=O)N(C1CCN(C(=O)OCC)CC1)C2
 : ., -0.8
> CC(=O)c1cccc(NC(=O)c2oc(C)nc2C)c1
 : ., 0.6
> CC(=O)C1=C(O)C(=O)N(Cc2ccco2)C1c1ccc2c(c1)OCO2 (stereo unspecified)
 : i, 0.9
> CSc1ccccc1NC(=O)c1noc2c1CCC2
 : i, 0.6
> NC(=O)CSc1nc(-c2ccccc2Cl)ns1
 : ., 0.7
> Cc1cc(NC(=O)c2cc(-c3cccs3)on2)no1
 : ., 0.7
> CN1C(=O)c2c(sc3c2CCCC3)NC1c1ccccc1O (stereo unspecified)
 : i, ?
> O=C(NC1CCCc2ccccc21)C1CCN(S(=O)(=O)N2CCCCCC2)CC1 (stereo unspecified)
 : ., 0.4
> CC1(C)CC(=O)c2c(O)cc(O)cc2O1
 : i, 0.9
> CCOC(=O)c1nnn(-c2nonc2-n2cccc2)c1CN1CCC(C)CC1
 : ., 0.5
> CCOC(=O)N1CCC(NC(=O)Cn2c3c(c(-c4ccccc4Cl)cc2=O)CCC3)CC1
 : i, -1.5
> CCc1c(C)sc(NC(=O)c2cc(-c3ccco3)on2)c1C#N
 : ., 0.3
> CCOc1ccc(CCNC(=O)C2CCCN(c3nn4c(=O)cc(C)nc4s3)C2)cc1OCC (stereo unspecified)
 : ., -2.0
> O=C(Nc1cccc(Cl)c1)C1CCCN(S(=O)(=O)c2cnc[nH]2)C1 (stereo unspecified)
 : ., -2.3
> CCOc1ccc(NCCC(=O)c2ccc3c(c2)OCO3)cc1
 : i, 1.5

Going on with the list.
Sequence of screens – VCAM-1 up, Proteasome disasm
> CSc1nnnn1CCn1nnnc1SC
 : ., -2.4
> COC(=O)C(C)Sc1nnc(Cc2cc(=O)[nH]c(=O)[nH]2)n1-c1ccc(Cl)cc1 (stereo unspecified)
 : ., 1.0
> COc1cccc(-c2nc(CS(=O)CC(=O)NCCCOC(C)C)c(C)o2)c1 (stereo unspecified)
 : i, -1.2
> CCCS(=O)(=O)N1CCCC(C(=O)NCCc2ccc(OC)c(OC)c2)C1 (stereo unspecified)
 : ., -0.4
> COc1ccc(C)cc1C(=O)C1CC(C(=O)O)C(C)(C)C1C (stereo unspecified)
 : ., 0.0
> Cc1ccc(N(C(=O)c2ccc3c(c2)OCO3)C2C=CS(=O)(=O)C2)cc1 (stereo unspecified)
 : ., -0.5
> CCOC(=O)Cc1csc(NC(=O)COc2ccc(OC)cc2)n1
 : ., -0.5
> O=C(CSc1nc(-c2ccco2)cc(C(F)(F)F)n1)Nc1ccc(C(=O)N2CCCCC2)cc1
 : ., -0.1
> COCCNC(=O)Cn1c(=O)n(Cc2ccc(C(=O)NCc3ccco3)cc2)c(=O)c2ccccc21
 : ., -1.5
> NS(=O)(=O)c1ccc(CCNC(=O)CCCC2=NS(=O)(=O)c3ccccc3N2)cc1
 : ., -0.5
> CC1CC(C)(C)NCc2ccccc21 (stereo unspecified)
 : ., -1.1
> CCOc1ccc(N(CC(=O)NC(C)(C)C)S(=O)(=O)c2c(C)noc2C)cc1
 : ., 0.1
> COc1cccc(-c2nnc(NC(=O)c3ccc(S(=O)(=O)N4CCOCC4)cc3)o2)c1
 : ., 1.6
> Cc1oc(-c2ccccc2F)nc1CS(=O)(=O)CC(=O)N1CCOCC1
 : ., 1.6
> COc1cc2c(cc1OC)CN(C(=O)CSc1nnc3scc(-c4ccccc4)n13)CC2
 : i, -1.8
> O=C(Nc1cccc(C(F)(F)F)c1)c1cccnc1N1CCCC1
 : i, -1.9
> COc1ccc(-n2c(COc3ccccc3)nnc2SCc2ccc(C#N)cc2)cc1
 : i, -0.7
> CCOCCn1cnc2sc(C(=O)Nc3nc(C)c(C(=O)OCC)s3)c(C)c2c1=O
 : i, 0.7
> Cc1ccc(OC(=O)c2cccc(C(=O)Oc3ccc(C)cn3)n2)nc1
 : ., -2.7
> CCOc1ccc(CC(=O)Nc2c(C(N)=O)oc3ccccc23)cc1OCC
 : ., -1.8
> COc1cccc(-c2cc(C(=O)NCc3ccco3)no2)c1
 : ., 0.7
> CCOC(=O)C(NC(C)=O)(Nc1ccc(S(=O)(=O)Nc2cc(C)nc(C)n2)cc1)C(F)(F)F (stereo unspecified)
 : ., -1.0
> COc1ccc(CNC(=O)Nc2cccs2)cc1OC
 : ., 0.9
> CCOC(=O)c1cccc(NC(=O)CCc2c(C)nc3ncnn3c2C)c1
 : ., -0.3
> CCOC(=O)C(C)NC(=O)C(NC(=O)C1CCC(CC)CC1)C(C)C (stereo unspecified)
 : ., -1.8
> Cc1nc2c(nnn2Cc2ccccc2)c(=O)n1-c1ccccc1
 : ., 1.0
> CC(=O)c1ccc(OCC(O)CN2CCCC(C)C2)cc1 (stereo unspecified)
 : ., 0.1
> CCCCN(CCCNC(=O)C1CCCN(S(=O)(=O)CC)C1)Cc1ccccc1 (stereo unspecified)
 : ., -0.2
> Cc1oc(-c2cccc(Cl)c2)nc1CN1CCC(C(=O)N2CCN(c3ccccn3)CC2)CC1
 : ., 5.9
> CCOc1ccc(C2C(C(=O)OC)=CN(CCOC)C=C2C(=O)OC)cc1
 : i, -0.3

Shown as labelled records: part of the list above
> CCc1c(C)c2ccc(OCC(=O)OC)cc2oc1=O
  VCAM-1 up = i; Proteasome disasm = -0.1

> COc1ccc(NC(=O)CNS(=O)(=O)c2cccs2)cc1
  VCAM-1 up = .; Proteasome disasm = -2.5

Entries of single compounds as entered above. Order of values: VCAM-1 up	Proteasome disasm
Record of `COc1cccc(-c2nnc(NC(=O)c3ccc(S(=O)(=O)N4CCOCC4)cc3)o2)c1` : .	1.6
Record of `CC(=O)c1ccc(OCC(O)CN2CCCC(C)C2)cc1` (stereo unspecified) : .	0.1
Record of `Cc1ccc(OC(=O)c2cccc(C(=O)Oc3ccc(C)cn3)n2)nc1` : .	-2.7
Record of `COCCNC(=O)Cn1c(=O)n(Cc2ccc(C(=O)NCc3ccco3)cc2)c(=O)c2ccccc21` : .	-1.5
Record of `COc1cc2c(cc1OC)CN(C(=O)CSc1nnc3scc(-c4ccccc4)n13)CC2` : i	-1.8

New compounds follow
Sequence of screens – VCAM-1 up, Proteasome disasm
> COc1ccc(Cl)cc1N1CCN(CCNC(=O)Nc2ccccc2C)CC1
 : i, -7.8
> CC(C)(C)NC(=O)CSc1nnnn1C(C)(C)C
 : ., 0.5
> CCOC(=O)c1[nH]c(C)c(C(=O)Nc2ccc(C)c(C)c2)c1C
 : ., -0.6
> Cc1cc(C)c2c(CC(=O)NCc3ccco3)coc2c1
 : i, 0.2
> COc1nc(N(C#N)CC(N)=O)nc(N2CCCC2)n1
 : ., 1.0
> COc1cc(C(=O)NCCC(=O)NCCCN2CCCCC2C)cc(OC)c1OC (stereo unspecified)
 : ., -0.4
> COc1ccc(Br)cc1C1CC(=O)N2CN(Cc3ccccc3)CSC2=C1C#N (stereo unspecified)
 : ., 0.6
> COc1ccc(Cl)cc1N1CC(c2nc3ccccc3[nH]2)CC1=O (stereo unspecified)
 : i, -0.5
> O=S(=O)(c1ccc(OCC(O)CN2CCC(Cc3ccccc3)CC2)cc1)N1CCOCC1 (stereo unspecified)
 : i, -0.3
> COC(=O)c1ccccc1NC(=O)C1CC(=O)N(c2ccc(F)cc2)C1 (stereo unspecified)
 : i, -1.5
> COC(=O)Cn1c(CN2CCOCC2)nc2c1c(=O)n(C)c(=O)n2C
 : i, -0.3
> O=C(NCC12CC3CC(C1)CC(CNC(=O)N1CCCC1)(C3)C2)N1CCCC1
 : i, 0.8
> CC(=O)NCCc1ccc(S(=O)(=O)NC2OC(=O)c3ccccc32)cc1 (stereo unspecified)
 : ., -2.9
> CCOC(=O)C1CCN(C(=O)Cc2c(C(=O)O)n(CC)c3ccccc23)CC1
 : ., -0.9
> COc1ccc2[nH]c(=O)c(CN(C(=O)c3cccnc3)c3ccccc3OC)cc2c1
 : i, 2.9
> O=C(Cn1cccc1)Nc1ccc(OC(F)(F)F)cc1
 : ., 0.3
> O=C(Cn1c(=O)n(Cc2ccco2)c(=O)c2ccccc21)NCC1CCCO1 (stereo unspecified)
 : ., 0.1
> CC(=O)N1c2ccccc2C(=O)OC1c1cccnc1 (stereo unspecified)
 : ., -3.5
> Cc1c(C(=O)NCCCN2CCOCC2)sc2ncnc(N3CCN(c4ccccc4)CC3)c12
 : ., 1.1
> O=C1CCC(=O)N1OCCCOc1ccc(Br)cc1Cl
 : i, -0.8
> O=C(Nc1cccc(NC(=O)c2ccc(Br)o2)n1)c1ccc(Br)o1
 : ., -2.0
> CC(NC(=O)C1CCN(c2nnc(-n3cccc3)s2)CC1)C12CC3CC(CC(C3)C1)C2 (stereo unspecified)
 : ., 4.4
> Cc1cccc(N2CCN(C(=O)C3CCN(S(=O)(=O)c4cccc5cccnc45)CC3)CC2C)c1 (stereo unspecified)
 : ., 2.7
> Cc1ccccc1NCc1ccccc1O
 : ., -0.8
> COc1ccc(-c2cc(C(=O)N(C)Cc3ccccc3)no2)cc1OC
 : ., -0.6

These rows are one share of the data; the hit share may differ from the screen's.
